High-throughput results deposited in PubChem BioAssay by National Center for Advancing Translational Sciences (NCATS).
RE007 growth inh = qHTS Assay for Inhibitors of the HIV-1 protein Vpr | S. pombe RE007 Vpr strain, BacTiter-Glo ATP luminescence, 24 h; control for the full effect not named in the record | Potency, µM (titrated, usually from 92.2 µM), for the others: at the top dose activity change, negative = less growth | hit rate 0.21% among 360,000; active = well fitted falling curve with a large enough effect; inconclusive = small, poorly fitted or top-dose-only effect; inactive = no such curve, though single readings can be large or run the other way;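 further: nearly all actives have a fitted effect of over 50% in size; the assay follows cell death caused by Vpr and the record does not say whether a fall means rescue or toxicity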
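Fission yeast strain RE007, carrying one chromosomally integrated HIV-1 vpr copy, was seeded at OD 0.01 in PMG+AL medium with 23 nL pinned compound. After 24 h at 30 °C and 99% humidity, viability was read by BacTiter-Glo luminescence.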
StopGo reporter = High Throughput Screening for Foot and Mouth Disease Virus Antivirals | human cells with a luciferase reporter of 2A StopGo recoding; control for the full effect not named in the record | Potency, µM (doses to about 57.9 µM), without a hit: at the highest dose signal change, negative = less light | AID 1159524, 2015 | hit rate 1.2% among 410,000; active = well fitted falling curve with a large enough effect; inconclusive = small, poorly fitted or top-dose-only effect; inactive = no such curve, though single readings can be large or run the other way; tested in HEK293T cells; further: nearly all actives have a fitted effect of over 45% in size; luciferase light after 4 h
* = called active by the depositor; ? = inconclusive; [ ] = dose if it differs, or a comment. On the % scale 0 is the no-effect control and ±100 the full control effect; potency means the concentration at half of the fitted maximal effect. An excerpt; count on the stated rates, not on these rows.

| compound | StopGo reporter | RE007 growth inh |
| --- | --- | --- |
| O=C(Cc1cccc(NC(=O)C2CCCN(C(=O)C3CCC3)C2)c1)Nc1ccc(C(=O)N2CCCCC2)cc1 (stereo not drawn) | 7.8% | 10.0% |
| CCCN(C)C1CN(Cc2cn(Cc3ccc(F)cc3)nn2)S(=O)(=O)C1 (stereo not drawn) | -11.4% | 4.8% |
| CCC/C=C/c1ccc(CN2C(C(C)C)C(=O)N(Cc3cn(CCC4OCCO4)nn3)CCS2(=O)=O)cc1 (stereo not drawn) | ? | 4.3% |
| CCCCCCCCN1C(=O)[C@H](CC(=O)NCc2cccc(C(F)(F)F)c2)C[C@@]2(C(=O)OC)CC(C)(C)CC=C12 | ? | 4.6% |
| CCCCCCCCN1[C@@H](CC(C)=O)c2cc(C(F)(F)F)ccc2S1(=O)=O | -26.6% | -9.4% |
| C[C@H](CO)N1C[C@H](C)[C@H](CN(C)C(=O)Nc2ccc(N3CCN(C)CC3)cc2)OCc2cnnn2CCCC1=O | -10.3% | -5.3% |
| CC(C)N1CCC(C)(C(=O)Nc2ccc(Cl)c(Cl)c2)C1 (stereo not drawn) | -16.2% | 19.2%[18.4 µM] |
| O=C(C(=O)N1CCN(C/C=C/c2ccccc2)CC1)c1ccccc1 | 10.9% | 3.6% |
| CCCNC(=O)c1cc(C2CCCCN2S(=O)(=O)c2ccc(OC)cc2)on1 (stereo not drawn) | 9.4% | 6.2% |
| CC1=C(C/C(C)=C/c2ccccc2)/C(=C/CO)[C@H](O)[C@](C)(O)C12CC2 | -14.4% | -0.1% |
| COc1ccc(-n2nnnc2C(c2cccc3ccccc23)N2CCN(C/C=C/c3ccccc3)CC2)cc1 (stereo not drawn) | -20.0% | -3.0% |
| Cc1cc2nc(-c3cccc(Br)c3)c(CC(C)(C)C)n2c(C)c1Br | 5.4% | 1.3% |
| OCCN1c2ccccc2CCc2ccccc21 | -16.0% | 7.3% |
| COc1ccc(C(c2nnnn2C2CCCCC2)N2CCC3(CC2)C(=O)NCN3c2ccccc2)cc1 (stereo not drawn) | 5.1% | 6.1% |
| Cc1cc(OCC(=O)OCC(=O)NC2CCS(=O)(=O)C2)ccc1Cl (stereo not drawn) | -0.6% | 6.8% |
| CC(=O)Nc1cccc(-c2ccnc3c2CC(C)(C(=O)NC(C)C)O3)c1 (stereo not drawn) | -3.9% | -0.5% |
| CCc1nc2ccc(C(=O)NCc3ccc(OC)cc3)cn2c1N(C)CCC(C)C | -20.1% | 4.5%[18.4 µM] |
| COc1ccc(-c2csc(C(C)(O)c3ccc(OC)cc3)n2)cc1 (stereo not drawn) | -15.9% | 1.8% |
| O=C1NC(Cc2ccccc2)c2nc3ccc(F)cc3c(=O)n2-c2cc3ccccc3cc21 (stereo not drawn) | 0.0% | 7.9% |
| COC(=O)c1ccc2nc(-c3ccc(Cl)cc3)c(Cc3ccccc3OC)n2c1 | -6.9% | -1.8% |
| CC(CNCCCn1cnc2c(OCc3ccccc3)ncnc21)c1ccccc1 (stereo not drawn) | -16.6% | -21.8% |
| C(=NNc1nnn(Cc2ccccc2)n1)c1ccccc1 | 55.7%[activator] | 7.6% |
| O=C1Nc2ccccc2N(C(=O)c2ccc(-c3ccccc3)cc2)C1c1nc2ccccc2[nH]1 (stereo not drawn) | -8.0% | ? |
| CC(C)c1ccc(NC(=O)C2(C)Cc3c(-c4ccccc4)ccnc3O2)cc1 (stereo not drawn) | -16.6% | 13.9% |
| COc1cccc(-c2ccc(C3=CC(=O)CC(C)(C)C3=O)cc2)c1OC | -12.3% | -3.5% |
| CC1(c2nnnn2Cc2ccccc2)CCC(=O)N1CCc1c[nH]c2ccccc12 (stereo not drawn) | -13.4% | 7.5% |
| C[C@@H]1CN([C@H](C)CO)C(=O)c2cc(NC(=O)Nc3ccc(C(F)(F)F)cc3)ccc2O[C@H]1CN(C)C(=O)Nc1ccc(F)cc1 | -18.9% | 2.7% |
| CC1(C(=O)Nc2ccc(F)c(Cl)c2)Cc2c(-c3ccccc3)ccnc2O1 (stereo not drawn) | -22.4% | 1.2%[18.4 µM] |
| CCCCS(=O)(=O)NC(=O)C1(C)CCN1C(=O)C/C=C/c1ccccc1 (stereo not drawn) | -23.3% | -7.2% |
| CN1OC[C@@H]2CN(C(=O)Nc3ccccc3)[C@H](c3ccc(N4CCCCC4)cc3)C[C@@H]21 | -9.2% | 4.4% |
| CC(C)C[C@H]1CNC(=S)N1CC1CCN(CCCC2CCCC2)CC1 | -25.9% | -11.9% |
| COc1ccc(C(=O)Nc2nc(OCC(F)(F)F)cnc2/C=C\c2ccccc2)c(OC)c1 | -19.0% | 15.2% |
| CCOC(=O)c1cc(OC(C)=O)c2ccc(OC)c(OC)c2c1 | -0.3% | -25.0% |
| COc1ccccc1-c1cnc(C(O)c2ccc(F)c(C)c2)[nH]1 (stereo not drawn) | 5.7% | 4.0% |
| O=C1NCN(c2ccccc2)C12CCN(C(c1ccnc3ccccc13)c1nnnn1C1CCCCC1)CC2 (stereo not drawn) | -12.8% | -3.6% |
| O=C(NCc1ccco1)c1cc(-c2ccccc2)nn1CC1CC(c2cccnc2)=NO1 (stereo not drawn) | 3.6% | -4.7% |
| O=C1CCC[C@@H]2C[C@@]3(C[C@@H]4CCN1[C@H]24)Nc1cc(Cl)ccc1NC3=NC1CCCCC1 | 4.6% | -5.8% |
| Nc1nc(N)c2cc(S(=O)(=O)c3cccc(C(F)(F)F)c3)ccc2n1 | ? | 24.0% |
| Cc1cc(C)n2c(Nc3c(C)cccc3C)c(-c3cccnc3)nc2n1 | -12.6% | 4.8% |
| CCCCCCN1C[C@H](n2cc(C3CC3)nn2)[C@@H](O)C[C@@H]1c1ccc(C)cc1 | -2.9% | 0.4% |
| CCOC(=O)C1(C)CCCN1C(=O)c1ccccc1OC (stereo not drawn) | -2.0% | 6.7% |
| O=C(C[C@H]1CC[C@H]2[C@@H](COC[C@H](O)CN2C(=O)c2ccccn2)O1)N1CCN(c2ccccc2)CC1 | -25.0% | -10.1% |
| CN1CCN(C(=O)C2Cc3c(-c4ccc5c(c4)OCO5)ccnc3O2)CC1 (stereo not drawn) | -13.0% | -7.3% |
| CCOc1cccc(-c2cnc3cccnn23)c1 | 37.4%[activator] | -2.9%[18.4 µM] |
| CN(Cc1ccccc1)C(=O)c1cccc(NC(=O)Cc2ccc(NC(=O)C3CCN(C(=O)CCc4ccccc4)CC3)cc2)c1 | 17.8µM* | -8.6% |
| CC(C)(C)S(=O)N1Cc2cc(=O)n(Cc3ccccc3)c(CCO)c2[C@H]1CCO (stereo partly drawn) | -21.0% | 76.8% |
| NC(Cc1ccc(Cl)cc1)c1csc(Nc2ccc(C(F)(F)F)cn2)n1 (stereo not drawn) | -25.0% | -2.9% |
| COc1cccc(-c2cnc(C(O)c3ccc(F)c(C)c3)[nH]2)c1 (stereo not drawn) | 51.9%[activator] | -13.1% |
| O=C(OCc1ccccc1)N1CCC2CC1c1cc(N3CCN(C(=S)NCCc4ccccc4)CC3)ccc12 (stereo not drawn) | 15.1% | 4.5% |
| COc1ccc2noc3c2c1C(=O)c1ccccc1-3 | -15.1% | -26.6% |
| CCc1nc2ccc(C(=O)NCCCn3ccnc3)cn2c1N(C)Cc1ccc(N(C)C)cc1 | -2.2% | -28.7% |
| COc1ccc(CC(N)c2csc(NC(=O)Nc3ccc(F)cc3)n2)cc1 (stereo not drawn) | -32.8% | 12.6% |
| O=C(NC1CC1)C1=C[C@H](c2ccc(C(F)(F)F)cc2)C[C@H](OCCCCO)O1 | 4.0% | 7.3% |
| CCCCN1C[C@H](Cc2ccccc2)[C@@H](CC(=O)NC)C1=O | -15.6% | -2.0% |
| CC1CCN(S(=O)(=O)N2CCC(C(=O)NCc3ccc(F)cc3Cl)CC2)CC1 | -20.0% | -9.2% |
| CC(=O)NCCNc1nc(NCc2ccccc2)nc2ccsc12 | -7.4% | -11.4% |
| C[C@@H]1CN([C@H](C)CO)C(=O)c2cc(Br)cnc2O[C@@H]1CN(C)C(=O)NC1CCCC1 | -7.3% | -0.2% |
| CCc1nc2c(OCc3cc(Cl)cc(Cl)c3)cccn2c1N(C)C(=O)c1ccc(OC)cc1 | -23.7% | -1.9% |
| COc1cccc(-c2cc(NC(C)=O)c3ncc(-c4ccc(OC)c(OC)c4)n3c2)c1 | -18.5% | 4.1% |
| CC1=C(C(=O)N2CCOCC2)CC(CC(=O)NCc2ccco2)C(=O)N1CCC1=CCCCC1 (stereo not drawn) | -13.0% | 3.8% |

Part of the list above in order of SMILES length, ascending:
| compound | StopGo reporter | RE007 growth inh |
| --- | --- | --- |
| CCOC(=O)C1(C)CCCN1C(=O)c1ccccc1OC (stereo not drawn) | -2.0% | 6.7% |
| COc1ccccc1-c1cnc(C(O)c2ccc(F)c(C)c2)[nH]1 (stereo not drawn) | 5.7% | 4.0% |
| CCc1nc2ccc(C(=O)NCCCn3ccnc3)cn2c1N(C)Cc1ccc(N(C)C)cc1 | -2.2% | -28.7% |
| O=C(C[C@H]1CC[C@H]2[C@@H](COC[C@H](O)CN2C(=O)c2ccccn2)O1)N1CCN(c2ccccc2)CC1 | -25.0% | -10.1% |

Continuation:
| compound | StopGo reporter | RE007 growth inh |
| --- | --- | --- |
| O=C(CCCCC(=O)NN=Cc1ccc2c(c1)CCC2)NN=Cc1ccc2c(c1)CCC2 | -12.8% | -8.2% |
| CC(=O)c1cccc(-c2cnc3c(NC=O)cc(-c4ccc(N(C)C)cc4)cn23)c1 | -23.2% | 6.7%[18.4 µM] |
| Cc1ccc(-c2nc3ccc(Br)cn3c2Cc2cccc(F)c2)cc1 | 9.8% | -6.6% |
| C[C@H](CO)N1C[C@H](C)[C@@H](CN(C)S(=O)(=O)c2ccc(-c3ccccc3)cc2)OCc2cn(nn2)CCCC1=O | -20.7% | 10.8% |
| O=C(c1cc(Cl)cc(Cl)c1)N1CCC2CC1c1cc(-c3ccc4c(c3)OCO4)ccc12 (stereo not drawn) | -27.3% | 2.5% |
| OCCCNc1ncnc2c1ncn2[C@H]1CN(Cc2ccncc2)C[C@@H](CO)O1 | -9.7% | 5.8%[18.4 µM] |
| CCCCCNc1ncnc2c(C)[nH]nc12 | 7.2% | -14.6% |
| CC1=CC(=O)C2(C)C(C)=C(C)C12C (stereo not drawn) | -12.0% | -0.3% |
| COc1ccccc1NC(=O)N(C)C[C@H]1OCc2cnnn2CCCC(=O)N([C@@H](C)CO)C[C@H]1C | -8.3% | 17.0% |
| CCN(CC(=O)NCc1cccs1)C(=O)c1ccc(N(C)S(=O)(=O)c2ccc(C)cc2)cc1 | 0.0% | 9.6% |
| C[C@H](CO)N1C[C@H](C)[C@H](CN(C)C(=O)NC2CCCCC2)Oc2ncc(Br)cc2C1=O | ? | 22.6% |
| Cc1ccc(NC(=O)CCc2ccccc2)cc1C | 55.4%[activator] | 9.4% |
| CCCC(=O)N1CCCC1(C)C(=O)Nc1ccc(-n2cccc2)cc1 (stereo not drawn) | -4.1% | 4.1%[18.4 µM] |
| COc1cc(C(=O)N2CCN(C3=NS(=O)(=O)c4ccccc43)CC2)cc(OC)c1OC | -19.1% | -20.1% |
| COc1cccc(C(N)=O)c1 | -11.6% | 12.8% |
| COCc1c(C(=O)NCC(c2ccco2)N2CCCC2)oc2ccccc12 (stereo not drawn) | 0.0% | -14.3% |
| C[C@@H]1CN(S(=O)C(C)(C)C)[C@H](CCO)/C1=C\CCO (stereo partly drawn) | -14.9% | -2.7% |
| CCCCNC(=O)c1nc(C2CCN(S(=O)(=O)c3cccc(C(F)(F)F)c3)CC2)oc1-c1ccccc1 | -12.4% | 6.0% |
| CN(C(=O)c1cccc(NC(=O)Cc2ccc(NC(=O)C3CCN(C(=O)CCc4ccccc4)CC3)cc2)c1)C1CCCCC1 | ? | -26.8% |
| Cc1ccc(CN(C)C[C@@H]2OCc3cnnn3CCCC(=O)N([C@H](C)CO)C[C@H]2C)cc1 | -2.6% | 5.4% |
| CC1(C)N=C(N)N=C(N)N1c1ccc(CCCCc2ccccc2)cc1 | 3.55µM* | 22.8% |
| C[C@@H]1CN([C@H](C)CO)C(=O)c2cc(-c3ccc(C(=O)N(C)C)cc3)cnc2O[C@@H]1CN(C)C(=O)c1cccnc1 | -8.7% | 17.4% |
| Cc1ccc(Cc2c(-c3ccccc3)nc3c4ccccc4ccn23)cc1 | 21.5% | -14.5% |
| COc1ccc2c(c1)[C@@]13CCC=C[C@H]1[C@@H](C2)NCC3 | -17.2% | -18.1% |
| CC#CC(=O)N1CCC(n2nccc2NC(=O)CCc2ccccc2)CC1 | -10.5% | -4.0% |
| O=C(NCc1ccccc1)C1c2ccccc2OCC(=O)N1CC(F)(F)F (stereo not drawn) | ? | 0.5% |
| CCCCCC(=O)N1C[C@H](n2cc(COC(=O)c3ccccc3)nn2)[C@@H](O)C[C@@H]1c1ccc(C)cc1 | ? | -1.0% |
| O=CNc1cc(-c2ccsc2)cn2c(-c3ccccc3)cnc12 | -21.8% | -2.1%[18.4 µM] |
| COC1OC(c2ccccc2)=C(c2ccc(C(N)=O)cc2)c2ccc(F)cc21 (stereo not drawn) | -28.1% | 3.9% |
| C[C@@H]1CN([C@H](C)CO)C(=O)c2cc(Br)cnc2O[C@@H]1CN(C)C(=O)Nc1cccc(F)c1 | -21.9% | -9.9% |
| CC1(C(=O)NS(=O)(=O)Cc2ccccc2C(F)(F)F)CCN1C(=O)c1cccc(F)c1 (stereo not drawn) | -0.3% | 21.4% |
